Bioassay records: PubChem, National Center for Advancing Translational Sciences (NCATS)
miR-21 FLuc: raises the signal of a miR-21 reporter | HeLa miR-21 FLuc reporter, luciferase, 48 h | Potency, µM (highest dose often 38.3 µM), for the others: at the highest dose reporter change, positive = more light | 340,000 tested, under 10 active | AID 2288; active = well fitted rising curve with a large enough effect; inconclusive = small, poorly fitted or top-dose-only effect; inactive = no such curve, though single readings can be large or run the other way;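 further: % of control where 0% means no effect; miR-21 action dims this reporter so a rising signal means less miR-21 action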
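Luminescence from a firefly luciferase reporter carrying a miR-21 binding site downstream, stably expressed under a CMV promoter in HeLa cells that make miR-21 endogenously, reports miRNA modulation after 48 h compound exposure up to approximately 40uM final.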
* = called active by the depositor; ? = inconclusive; [ ] = remark or other dose. The list is partial, so the mix of outcomes need not match the whole.

mol,miR-21 FLuc
COc1ccc(NC(=O)Nc2cn(CC(C)C)c(=O)c3ccccc23)c(OC)c1,-1%
COc1cccc(N2CCN(C(=O)c3cnn(C(C)(C)C)c3C3CCN(C(=O)OC(C)(C)C)CC3)CC2)c1,2%
COc1ccc(-c2cc(C(F)(F)F)nc(SCC(=O)N3CCCCC3)n2)cc1,-5%
COc1ccc(S(=O)(=O)Nc2cccc(-c3ccc(N4CCCCCC4)nn3)c2)cc1,-34%
COC(=O)c1c(C)oc2ccc(N(C(=O)c3ccncc3)S(=O)(=O)c3c(C)cc(C)cc3C)cc12,13%
COc1ccc(N2Cc3cccc(C(=O)Nc4ccc(C)c(C)c4)c3C2=O)cc1,-8%
COc1ccc(OC)c(CNC(=O)C2COc3ccccc3C2)c1 (stereo not drawn),-9%
CCn1ccc2cc(S(=O)(=O)N3CCCN(C(=O)Nc4ccccc4F)CC3)ccc21,-2%
CCOC(=O)c1c(C)[nH]c(C)c1S(=O)(=O)N(C)CC(=O)Nc1ccc(C)c(N(C)C)c1,-2%
CCOc1cc(C2c3c(oc4ccc(F)cc4c3=O)C(=O)N2Cc2ccc(C)cc2)ccc1O (stereo not drawn),-5%
Cc1ccc(-c2nnc(SCc3ccccc3C)o2)cc1,-49%
COc1cc(CCC(=O)NCc2ccc3c(c2)CCN3C(=O)c2ccc(F)cc2)cc(OC)c1OC,13%
Cc1ccc(Nc2cc(C(=O)NCc3cccs3)c3ccccc3n2)c(C)c1,11%
Cc1ccc(Cn2c(SCc3ccc(C(=O)NCCc4ccccc4)cc3)nc3ccncc32)cc1,10%
CCOC(=O)c1c(NC(=O)CSc2cn(CCNC(=O)c3ccccc3OC)c3ccccc23)sc2c1CCC2,-8%
Cc1ccc(NC(=O)c2sc3nc(-c4ccncc4)ccc3c2N)cc1,-19%
Cc1ccc(C)c(N2CCN(C3(c4ccccc4)C(=O)c4ccccc4C3=O)CC2)c1,2%
COc1ccc([C@]23Cc4ccccc4C(O2)c2c(cc(-c4ccccc4)oc2=O)O3)cc1,-8%[7.66 µM]
CCc1ccc(NC(=O)CSc2nc3c([nH]c4ccccc43)c(=O)n2C)cc1,9%
CCn1cc(/C=C(\NC(=O)c2ccc(OC)cc2)C(=O)NCCCn2ccnc2)c2ccccc21,-6%
Cc1ccc(N2CC(NC(=O)C3CCCCC3)CC2=O)cc1C (stereo not drawn),3%
Cc1ccc(CSc2nc3cccnc3n2Cc2ccc(C(=O)NCc3cccs3)cc2)cc1,6%
Cc1cccc(-n2cnc3cc(C(=O)NC4CCCCCC4)ccc32)c1,?
CCc1cccc(C)c1NC(=O)CN1C(=O)C2(SCC(=O)N2c2cccc(F)c2)c2ccccc21 (stereo not drawn),-1%
Cc1ccc2c(c1)c(=O)c(C(=O)c1ccc3c(c1)OCO3)cn2Cc1ccc(Cl)cc1,26%
Oc1ccc(O)c(/C(=N/Nc2ccccc2)c2ccccc2)c1,-2%
COc1cc(C2c3c(oc4ccccc4c3=O)C(=O)N2c2ccccn2)cc(OC)c1OC (stereo not drawn),-1%
COc1ccc(NC(c2ccc(F)cc2)c2nnc(-c3ccccc3Cl)o2)cc1Cl (stereo not drawn),0%
Cc1cc(C)c(Cn2c(CCNC(=O)c3ccco3)nc3ccccc32)c(C)c1,16%
COCCCn1c(=O)c2sccc2n2c(CCCC(=O)Nc3ccc(F)c(F)c3)nnc12,16%
Fc1ccc(N2CCN(c3ncnc4onc(-c5ccc(Cl)cc5)c34)CC2)cc1,21%
Cc1cccc(OCC(=O)Nc2ccc(C(=O)OCc3cc(=O)n4nc(C5CC5)sc4n3)cc2)c1,0%
CCCCNC(=O)c1cc(Sc2ccc(OCC)cc2)nc2ccccc12,0%
CCc1ccc2occ(CC(=O)Nc3sc4c(c3C(=O)NCCOC)CCCC4)c2c1,-10%
COc1ccc(NC(=O)N(Cc2ccco2)C2CCN(C(C)=O)CC2)c(OC)c1,1%
CCOC(=O)c1cc(S(=O)(=O)Nc2cc(F)ccc2C)[nH]n1,-2%
CCCCN(C)CCCNC(=O)Cn1ncc2c3ccccc3n(Cc3cccc(Cl)c3)c2c1=O,-5%
Cc1ccc2c(c1)C(C)(c1ccccc1)CC(C)(C)N2C(=O)c1ccc(F)cc1 (stereo not drawn),0%
CSc1ccc(CNc2ncc(-c3ccccc3)n2C)cc1,-7%
O=C(NCC(c1ccc2c(c1)OCO2)N1CCOCC1)c1ccccc1 (stereo not drawn),-21%

Looked up above.
miR-21 FLuc result of CCc1cccc(C)c1NC(=O)CN1C(=O)C2(SCC(=O)N2c2cccc(F)c2)c2ccccc21 (stereo not drawn) → -1%
miR-21 FLuc result of Cc1ccc(N2CC(NC(=O)C3CCCCC3)CC2=O)cc1C (stereo not drawn) → 3%
miR-21 FLuc result of COc1ccc(NC(=O)N(Cc2ccco2)C2CCN(C(C)=O)CC2)c(OC)c1 → 1%
miR-21 FLuc result of COc1cc(C2c3c(oc4ccccc4c3=O)C(=O)N2c2ccccn2)cc(OC)c1OC (stereo not drawn) → -1%
miR-21 FLuc result of Cc1ccc(CSc2nc3cccnc3n2Cc2ccc(C(=O)NCc3cccs3)cc2)cc1 → 6%
miR-21 FLuc result of CCCCN(C)CCCNC(=O)Cn1ncc2c3ccccc3n(Cc3cccc(Cl)c3)c2c1=O → -5%

(further entries)
mol,miR-21 FLuc
CSc1ccc(CCNC(=O)CCn2c(=O)c3cccn3c3cccnc32)cc1,-3%
CCOc1ccc(NC(=O)CSc2oc(-c3ccco3)nc2S(=O)(=O)c2ccccc2)cc1,14%
COc1cc2c(cc1OC)C1O[C@](CCCCN3C(=O)c4ccccc4C3=O)(C2)Oc2cc(C)n(Cc3ccccc3)c(=O)c21,0%[7.66 µM]
CC1CN(c2ccc(Cl)cc2)c2nc3c(c(=O)n(CC(=O)O)c(=O)n3C)n2C1 (stereo not drawn),-1%
COc1ccc(Nc2cc(C(=O)NCc3ccccc3OC)c3ccccc3n2)cc1,1%
CC(C)Oc1ccc(CNC(=O)c2ccc(NC(=O)N3CCSc4ncccc43)cc2)cc1,-25%
COc1ccccc1C(=O)Nc1ccc(S(=O)(=O)Nc2ncccn2)cc1,-11%
O=C(NCCC1=CCCCC1)c1ccc2c(c1)N(Cc1ccccc1)C(=O)c1ccccc1S2(=O)=O,3%
Cc1ccc2c(CC(=O)Nc3ccc(S(=O)(=O)N4CCCC(C)C4)cc3)coc2c1 (stereo not drawn),-4%
CC(C(=O)Nc1ccccc1C(F)(F)F)n1nnc2sc3c(c2c1=O)CCCC3 (stereo not drawn),0%
Brc1ccc(-c2nc3ccccn3c2Nc2ccc3c(c2)OCCO3)o1,-10%
O=C(CSCc1cc(=O)c2ccccc2[nH]1)Nc1cccc(C(F)(F)F)c1,-7%
Cc1ccccc1Nc1nn2c(=O)c3ccc(C(=O)N4CCCC(C)C4)cc3nc2s1 (stereo not drawn),0%
CC(C)CCNC(=O)c1cc2cc(S(=O)(=O)N3CCCCC3)ccc2n1C,-1%
Cc1cccc(N(C)c2nc3ccccc3c3nnc(C)n23)c1,?
CCC(=O)Nc1ccccc1-c1nc2ccccc2n(C(C)C(=O)Nc2cccc(Cl)c2C)c1=O (stereo not drawn),-5%
COc1ccc(NS(=O)(=O)c2ccc3c(c2)CCN3C(=O)CCC(=O)O)cc1Cl,1%
CCc1ccccc1N(C)C(=O)C1CCCN(c2ncnc3onc(-c4ccc(F)cc4)c23)C1 (stereo not drawn),0%
CCc1ccc(C(=O)c2cn(CC(=O)Nc3ccc(C)c(C)c3)c3ccccc3c2=O)cc1,2%
CCOCCc1nnc(NC(=O)C(=O)c2cc(C)n(-c3ccc(Cl)cc3)c2C)s1,14%

(next part)
smiles,miR-21 FLuc
Cc1cccc2nc(-c3ccc(Cl)s3)c(Nc3ccc4c(c3)OCCO4)n12,-43%
COc1cccc(Cc2nc3ccccc3nc2SCC(=O)Nc2ccccc2F)c1,-5%
COc1ccc(C2C(=O)N(C3CCC(C)CC3)CC(=O)N2C2CCCC2)cc1OC (stereo not drawn),-3%
Cc1ccc(NC2=C(CC(=O)O)C(c3ccc(F)cc3)N(c3ccc(C)cc3)C2=O)cc1 (stereo not drawn),-16%
O=C(Nc1ccccc1O)c1cc(S(=O)(=O)N2CCCC2)ccc1Cl,7%
COc1ccc(Cn2c(CO)cnc2SCc2ccc(C)cc2)cc1,-27%
CC(C)CCOc1ccccc1Cn1c(=O)sc2ccccc21,5%
COc1ccccc1OCCn1c(-c2ccc(Cl)cc2)nc2ccccc2c1=O,-1%
COc1cc2c(cc1OC)C1O[C@](CCCCN3C(=O)c4ccccc4C3=O)(C2)OC2=C1C(=O)c1ccccc1C2=O,3%[7.66 µM]
CCOCCCn1c(=N)c(C(=O)NC2CCCC2)cc2c(=O)n3cc(C)ccc3nc21,-1%
CCOc1ccc(CNC(=O)c2cccc(NC(=O)N3CCSc4ncccc43)c2)cc1,24%
COc1cccc(CNc2ncc(-c3ccc(Br)cc3)n2C)c1,30%
CCCC(=O)NCc1nc2cccnc2n1Cc1ccc(F)cc1,-1%
CCN(CC)C(=O)c1sc2c(c1C)c(=O)n(-c1ccccc1)c(=O)n2Cc1cc(=O)n2ccccc2n1,-7%
CCOc1ccc(NC(=O)Cn2c(=O)c(CNc3ccc(CC)cc3)cc3cc4c(cc32)OCO4)cc1,0%

The last 7 records of the part above open the next one:
smiles,miR-21 FLuc
COc1cc2c(cc1OC)C1O[C@](CCCCN3C(=O)c4ccccc4C3=O)(C2)OC2=C1C(=O)c1ccccc1C2=O,3%[7.66 µM]
CCOCCCn1c(=N)c(C(=O)NC2CCCC2)cc2c(=O)n3cc(C)ccc3nc21,-1%
CCOc1ccc(CNC(=O)c2cccc(NC(=O)N3CCSc4ncccc43)c2)cc1,24%
COc1cccc(CNc2ncc(-c3ccc(Br)cc3)n2C)c1,30%
CCCC(=O)NCc1nc2cccnc2n1Cc1ccc(F)cc1,-1%
CCN(CC)C(=O)c1sc2c(c1C)c(=O)n(-c1ccccc1)c(=O)n2Cc1cc(=O)n2ccccc2n1,-7%
CCOc1ccc(NC(=O)Cn2c(=O)c(CNc3ccc(CC)cc3)cc3cc4c(cc32)OCO4)cc1,0%
Cc1cccc(C(=O)n2nc(-c3cccnc3)nc2NCc2ccc(F)cc2)c1,1%
Cc1ccccc1Cn1c(COc2ccc(Cl)cc2)nc2ccccc21,-5%
CCOC(=O)C1=C(CS(=O)(=O)c2ccc(C(C)(C)C)cc2)NC(=O)NC1c1cccc(OC)c1 (stereo not drawn),?
Cc1ccc(COC(=O)c2[nH]c3c(c2C)C(=O)CC(c2ccc(Cl)cc2)C3)cc1 (stereo not drawn),-1%
Cc1cc2nc(-c3cccc(NC(=O)c4cccc5ccccc45)c3)oc2cc1C,-16%
N#C/C(=C/c1ccccc1Cl)c1nc2ccccc2c(=O)[nH]1,-6%
CCN(CC)C(=O)CN1C(=O)COc2ccc(S(=O)(=O)N3CCOCC3)cc21,1%
COc1ccc(CCNC(=O)c2c(Nc3ccccc3C)sc(C(=O)c3ccccc3)c2N)cc1OC,6%
CCOC(=O)c1cc(-c2ccccc2)n(CCCC(=O)Nc2ccc(C)cc2Cl)c1C,-2%
CCCN1CCN(CCNC(=O)Nc2ccc(OC)c(OC)c2)CC1,-1%
COc1ccc(N2CCN(C(=O)C(C)n3c(=O)cc(C(F)(F)F)c4c(C)nn(C)c43)CC2)cc1 (stereo not drawn),23%
COc1cccc(N2CC(NC(=O)C3CC3)CC2=O)c1 (stereo not drawn),0%
COc1ccc(N2CCN(S(=O)(=O)c3ccc(-c4cc(C(F)(F)F)on4)s3)CC2)cc1,1%
COc1cc2ccccc2cc1C(=O)Nc1ccc2oc(-c3ccccc3)nc2c1,-23%
Cc1ccc(-n2cnnn2)cc1S(N)(=O)=O,3%
Cc1nn2c(=O)cc(COC(=O)c3ccc(F)cc3)nc2s1,-18%
Cc1cccc(NC(=O)c2c(NC(=O)c3ccco3)sc3c2CCC(C(C)(C)C)C3)c1 (stereo not drawn),0%
CCCN1C(=O)CN(C2CCCCCC2)C(=O)C1c1ccc(OCC)c(OC)c1 (stereo not drawn),-16%
Cc1ccc(NC(=O)c2cc3c(=O)n(Cc4ccco4)ccc3nc2C)cc1C,15%
Cc1ccc(S(=O)(=O)C(CNC(=O)Cc2ccc(Cl)cc2)c2cccs2)cc1 (stereo not drawn),11%
Cc1nn(CC(=O)NC2CC2)c(=O)c2cc3ccccc3n12,0%
CCC(=O)N1c2ccccc2CC1C(=O)N1CCN(c2ccccc2)CC1 (stereo not drawn),-1%
COc1ccc(NCc2cc3cc4c(cc3n(CC(=O)Nc3cccc(F)c3)c2=O)OCO4)cc1,-4%
CCc1nnc(SCC(=O)Nc2ccc(F)cc2F)c2cc3sc(C)cc3n12,-1%
COc1ccc(CNC(=O)CC(c2ccc(OC)cc2)N2Cc3ccccc3C2=O)cc1 (stereo not drawn),4%
Cc1ccc2c(c1)c1c(c(=O)n(-c3ccccc3)c(=O)n1CC(=O)c1ccc(F)cc1)n2C,3%
COc1ccc(CNC(=O)c2cc(C)nc3c2c(C)nn3-c2cccc(Cl)c2C)cc1,5%
Cn1c(C(=O)Nc2cccc(Cl)c2)cc2c(=O)n(C)c3ccccc3c21,2%
Cc1nn(CC(=O)NCc2ccco2)c(=O)c2cc3ccccc3n12,2%
COc1cc2nc(SCC(=O)Nc3ccccc3F)n3nc(-c4ccccc4)nc3c2cc1OC,-2%
Cc1cc(-n2c(C)nc3ccccc3c2=O)ccc1NC(=O)c1ccc(C)c([N+](=O)[O-])c1,-5%
Cc1ccc(Cn2c(C(=O)Nc3ccc(Cl)cc3)cc3sccc32)cc1,-7%
CCCCN(C)CC(O)Cn1cc(/C=C/C(=O)c2ccc(OC)c(OC)c2)c2ccccc21 (stereo not drawn),?
O=C(Nc1cccc(C(F)(F)F)c1)C1CCCN(S(=O)(=O)c2cccc3nsnc23)C1 (stereo not drawn),8%
CCOC(=O)c1cnc2nc(NCc3cccc(Br)c3)[nH]n2c1=O,7%
